# gsp agonist – gsp mutant agonism; actives 0.13% (n = 340,000); Potency, µM (doses to about 76.9 µM), inactives show top-dose activation (cAMP increase), actives largely listed as activators; gsp mutant cells, cAMP HTRF, 30 min; control for the full effect not named in the record; active = well fitted activation curve with a large enough effect; inconclusive = small, poorly fitted or top-dose-only effect, or another doubt; inactive = no such curve, though single readings can be large or run the other way; cell line not stated here;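 also: phosphodiesterase inhibitor Ro 20-1724 added with compounds to block cAMP breakdown; potency is read from the fitted curve at half-maximal effect; nearly all actives have a fitted effect of over 60% in size; about a fifth of the inactives were tested at one dose only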
#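 Cells in DMEM/10% FBS with G418 were pretreated with compounds in DMSO plus […] (300 uM stock) for 30 min at 37C. cAMP was measured by HTRF (cAMP-d2 plus anti-cAMP antibody-K) after 30 min at room temperature.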
# D2 ag – human D2 receptor agonism in beta-arrestin assay; P14416; DiscoveRx PathHunter D2 beta-arrestin, luminescence, 90 min; 100% = 57 uM dopamine signal; activation, % (no concentration beside the values); actives 0.084% (n = 360,000); AID 624465; in the data active = activation above about 40%; inconclusive = about 15% to 40%; inactive = below about 15%; also: compound concentration not given in the record; the text of the record calls up to 30% inactive
#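 DiscoveRx PathHunter D2 beta-arrestin cells (2,100/well) attached overnight, then compound-stimulated 90 min at 37 C in HBSS/10 mM HEPES/0.1% Tween-20 buffer; beta-galactosidase complementation read by luminescence after 1 h at ambient temperature. Dopamine 57 uM final (EC100) as control.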
# D2 potentiator – human D2 receptor positive allosteric modulation; P14416; DiscoveRx D2 beta-arrestin cells, luminescence, 90 min; 100% = 57 uM dopamine signal; potentiation, % (no concentration beside the values); actives 0.23% (n = 360,000); active = potentiation of 50% or more; inconclusive = 30% to 50%; inactive = 30% or less;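 also: compound concentration not given in the record; tested on top of an EC20 dose of dopamine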
#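 D2 cells co-treated with compound plus 50 nM dopamine (EC20) for 90 min at 37 deg C to detect potentiation. Beta-arrestin recruitment was read as enzyme-fragment luminescence after 1 h at ambient temperature. Full response was set by 57 uM dopamine.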
# gsp antag – gsp mutant antagonism; gsp-mutant cells, cAMP HTRF, 30 min; control for the full effect not named in the record; Potency, µM (highest dose often 76.9 µM), for the others: at the top dose activity change, negative = inhibition, usual class: inhibitors; actives 0.4% (n = 340,000); AID 624288; active = falling curve of any shape with a large fitted effect; inconclusive = falling curve, mostly with a smaller effect; inactive = flat or rising curve; cell line not stated here;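 also: intracellular cAMP measured with PDE inhibitor Ro 20-1724 present during compound exposure; potency is read from the fitted curve at half-maximal effect; % is scaled to controls: 0 for no effect and ±100 for the full control effect; nearly all actives have a fitted effect of over 65% in size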
#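 Cells in G418 medium, seeded 16-24 h, 37C; buffer exchange to DPBS + 1 mM CaCl2, 0.5 mM MgCl2, 0.05% BSA; cpds in DMSO + […] (300 uM stock), 30 min 37C; HTRF cAMP detection.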
# Six1-Eya2 inh – inhibitors of human Six1/Eya2 interaction | activity change, % (test concentration not listed) | AID 651725 | actives 0.56% (n = 360,000) | AlphaScreen GST-Six1/His-Eya2 binding, biochemical; active compounds read low; control for the full effect not named in the record | Q15475+O00167; in the data active = activity change below about -65%; inconclusive = about -30% to -65%; inactive = above about -30%; also: % is scaled to controls: 0 for no effect and ±100 for the full control effect
# Target sequence (O00167 whole entry, looked up): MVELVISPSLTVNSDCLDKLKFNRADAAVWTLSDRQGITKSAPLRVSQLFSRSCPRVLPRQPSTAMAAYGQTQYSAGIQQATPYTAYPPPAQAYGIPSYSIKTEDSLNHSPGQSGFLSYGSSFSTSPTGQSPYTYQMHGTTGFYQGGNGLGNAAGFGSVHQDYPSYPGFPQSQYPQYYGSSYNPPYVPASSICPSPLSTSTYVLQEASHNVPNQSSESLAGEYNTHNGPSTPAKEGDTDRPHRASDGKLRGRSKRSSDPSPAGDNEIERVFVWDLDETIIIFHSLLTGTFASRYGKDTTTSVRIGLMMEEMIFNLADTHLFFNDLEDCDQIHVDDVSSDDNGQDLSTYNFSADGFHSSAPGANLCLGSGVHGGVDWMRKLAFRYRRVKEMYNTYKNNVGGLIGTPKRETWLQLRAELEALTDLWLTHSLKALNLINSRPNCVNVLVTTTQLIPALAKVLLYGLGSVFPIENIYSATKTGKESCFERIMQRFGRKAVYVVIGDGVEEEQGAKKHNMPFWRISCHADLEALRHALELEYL
# Target sequence (Q15475 whole entry, looked up): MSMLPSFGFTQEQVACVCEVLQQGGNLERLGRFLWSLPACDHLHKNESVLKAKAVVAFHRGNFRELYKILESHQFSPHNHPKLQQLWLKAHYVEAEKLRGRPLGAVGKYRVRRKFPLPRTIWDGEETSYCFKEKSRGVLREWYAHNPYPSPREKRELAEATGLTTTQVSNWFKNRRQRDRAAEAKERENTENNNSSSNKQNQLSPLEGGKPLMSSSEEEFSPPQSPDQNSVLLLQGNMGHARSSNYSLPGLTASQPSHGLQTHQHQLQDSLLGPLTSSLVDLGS
#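 GST-Six1 + His-Eya2 (5X stock: 250/500 nM); Tris pH 8.0, 300 mM NaCl, 0.05% BSA, 0.02% Tween 20; GSH donor/Ni acceptor beads; 1 h 37 °C dark; AlphaScreen readout.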
# CtBP-E1A blk – blocks the CtBP interaction with E1A | AlphaScreen GST-E1A/His-CtBP binding, 1536-well; active compounds read low; control for the full effect not named in the record | activity change, % (test concentration not listed) | actives 0.49% (n = 340,000); in the data active means activity change below about -65%; inconclusive means about -30% to -65%; inactive means above about -30%; also: % is scaled to controls: 0 for no effect and ±100 for the full control effect
#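 GST-E1A and His-tagged CtBP (125 nM each as 5X stock) were preincubated with pin-transferred compound for 2 h at 37 °C in the dark, then glutathione donor and nickel acceptor beads were added for 1 h before AlphaScreen reading.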
# Numbers without * were called inactive; ? = inconclusive; . = no result given; [ ] = dose if it differs, or a comment.
# Preview (four entries):
SMILES,gsp agonist,D2 ag,D2 potentiator,gsp antag,Six1-Eya2 inh,CtBP-E1A blk
O=[N+]([O-])c1cc(Br)c(O)c(/C=N/Nc2nc3ccccc3s2)c1,-29%,3.3,5,-5%,8,23
COc1ccc(CC(=O)Nc2ccc(S(=O)(=O)Nc3cc(C)nc(C)n3)cc2)cc1OC,-48%[inhibitor],-2.9,2,.,-17,-12
Cc1cccc(N2C(=O)/C(=C\c3ccc(C(=O)O)cc3)c3ccccc3C2=O)c1,1%,-2.6,1,-8%,2,-4
O=C(O)C1CCCN1S(=O)(=O)c1ccc(Br)s1 (stereo not given) (tested in a mixture with another compound),-17%[15.4 µM],-0.6,-3,2%,1,13

# The listing, previewed entries included:
SMILES,gsp agonist,D2 ag,D2 potentiator,gsp antag,Six1-Eya2 inh,CtBP-E1A blk
O=[N+]([O-])c1cc(Br)c(O)c(/C=N/Nc2nc3ccccc3s2)c1,-29%,3.3,5,-5%,8,23
COc1ccc(CC(=O)Nc2ccc(S(=O)(=O)Nc3cc(C)nc(C)n3)cc2)cc1OC,-48%[inhibitor],-2.9,2,.,-17,-12
Cc1cccc(N2C(=O)/C(=C\c3ccc(C(=O)O)cc3)c3ccccc3C2=O)c1,1%,-2.6,1,-8%,2,-4
O=C(O)C1CCCN1S(=O)(=O)c1ccc(Br)s1 (stereo not given) (tested in a mixture with another compound),-17%[15.4 µM],-0.6,-3,2%,1,13
Cc1ccc(NC(=O)c2sccc2-n2cccc2)c(Cl)c1,0%,-5.6,-6,-15%,-3,.
O=C(O)c1ccc(CSc2ncn[nH]2)cc1,-6%,0.2,-9,6%,6,25
CCNc1nc2c(c(=O)n(C)c(=O)n2C)n1CCCc1ccccc1,20%,0.3,-2,-10%,-3,2
O=S(=O)(c1ccc(NC(=S)N2CCN(c3ccc(O)cc3)CC2)cc1)N1CCOCC1,15%[15.4 µM],-1.5,-3,-6%,-5,-4
COC(=O)c1ccc(Cl)c(NC(=O)Cc2ccccc2[N+](=O)[O-])c1,-55%[inhibitor],-3.9,-28,9%,-2,2
COc1ccc(C(=O)NCc2nnc(SC)n2Cc2ccccc2)cc1,-37%[15.4 µM],-6.6,-8,-14%,18,0
COc1ccc(C)cc1NC(=O)CSc1nc2scc(C)c2c(=O)[nH]1,12%,-4.9,-6,2%,-11,-11
N#Cc1c(N)nc2c(c1-c1ccccc1)CCCC2,-16%,-0.9,3,-3%,-2,5

# 3 compounds already listed, arranged by heavy-atom count, lowest first:
SMILES,gsp agonist,D2 ag,D2 potentiator,gsp antag,Six1-Eya2 inh,CtBP-E1A blk
N#Cc1c(N)nc2c(c1-c1ccccc1)CCCC2,-16%,-0.9,3,-3%,-2,5
CCNc1nc2c(c(=O)n(C)c(=O)n2C)n1CCCc1ccccc1,20%,0.3,-2,-10%,-3,2
COc1ccc(CC(=O)Nc2ccc(S(=O)(=O)Nc3cc(C)nc(C)n3)cc2)cc1OC,-48%[inhibitor],-2.9,2,.,-17,-12

# Further results.
SMILES,gsp agonist,D2 ag,D2 potentiator,gsp antag,Six1-Eya2 inh,CtBP-E1A blk
O=C(c1ccco1)N1CCCC(N2CCN(c3cccc(C(F)(F)F)c3)CC2)C1 (stereo not given),-29%,-7.4,-36,-10%,-11,?
O=C(CCCC(=O)Nc1cccc(Br)c1)N/N=C/c1cc([N+](=O)[O-])ccc1O,?,-14,-11,?,-67*,-82*
Cc1ccc(NC(=O)CCNS(=O)(=O)c2ccc3c(c2)oc(=O)n3C)cc1,?,0.9,0,1%,-2,-2
CN(CCc1ccccn1)C(=O)Nc1cccc(Cl)c1,8%[15.4 µM],-4.5,4,-1%,22,0
CCc1ccc(S(=O)(=O)Nc2c(C)n(C)n(-c3ccccc3)c2=O)cc1,3%,4.2,-11,-9%,0,-2
CCCSc1ccc([C@@H]2[C@H]3C(=O)N(CC)C(=O)[C@H]3[C@]3(C(=O)OC)CCCN23)cc1,11%,-2.4,-11,-4%,3,-3
c1ccc(N2OCC3Cn4c(nc5ccccc54)C32)cc1 (stereo not given),9%,0.1,-3,8%,5,4
COCCN(C(=O)COC(=O)CNC(=O)c1ccc(C)cc1)c1c(N)n(Cc2ccccc2)c(=O)[nH]c1=O,-29%,-4.0,-4,11%,-1,.
O=C(O)CSCC(=O)Nc1ccc(C(F)(F)F)cc1,18%[15.4 µM],-1.6,-4,16%,11,4
CN1Cc2sc(N)c(C#N)c2CC1(C)C,-3%,-0.6,-12,8%,-7,15
COc1ccc(C(=O)CSc2n[nH]c(=O)n2Cc2ccco2)cc1,-1%,8.9,2,-7%,-4,-1
CCCC(=O)NCCc1cc2ccc(OC)cc2[nH]c1=O,?,-1.0,-12,5%,3,0
CCOC(=O)Cn1cc(C(=O)OC)c2ccccc21,-15%,-3.2,-9,0%,0,6
COC(=O)C1=NNC(C(=O)OC)C1c1ccccc1 (stereo not given),-31%[inhibitor],3.8,-5,-16%,3,1
Cc1ccc(OCc2nnc(SCC(N)=O)n2N)cc1,-3%,-3.6,-11,7%,8,.
NC(=O)C1CCN(C(=O)c2cccc(CN3C(=O)c4ccccc4C3=O)c2)CC1,2%[15.4 µM],-8.2,-14,9%,3,-2
CC(=O)Oc1c(C(C)C)cc(N(C(C)=O)c2ccccc2)cc1C(C)C,15%[15.4 µM],-2.4,-6,-15%,-12,3
C=CCOC(=O)C1=C(C)N=C2SCCC(=O)N2C1/C=C/c1ccccc1OC (stereo not given),9%,4.0,-13,?,-1,.
Cn1c(-c2ccc(F)cc2)cnc1NCc1ccc(C#N)cc1,15%,-6.7,-24,8%,-1,-15
Cn1c(=O)oc2cc(S(=O)(=O)N3CCC(C(=O)NCc4cccs4)CC3)ccc21,?,6.3,-7,-7%,6,0
COc1ccc(OCc2nc(C#N)c(NCCCn3ccnc3)o2)cc1,-10%[15.4 µM],-5.6,4,10%,-2,5
COc1cccc(CN(C)C(=O)c2ccc(Cl)c(S(=O)(=O)N3CCCCCC3)c2)c1OC,31%,13,0,?,-1,-7
COc1ccc(C(=O)Oc2ccc3ccc(=O)oc3c2)cc1OC,?,7.6,-2,9%,1,-4
CCOC(=O)C1(CCOc2ccccc2)CCN(Cc2cnc(C)[nH]2)CC1,-6%[15.4 µM],-1.4,-9,-3%,-25,15
COc1ccc(S(=O)(=O)NCC2CCCN(C(=O)CNC(C)=O)C2)cc1 (stereo not given),6%,-1.1,-11,-14%,11,-4
c1ccc(CCNc2c3c(nc4ncnn24)CCC3)cc1,-31%[inhibitor],0.7,-3,-7%,-2,-6
Cn1c2c(c(=O)n(C)c1=O)C1(C(=O)Nc3ccccc31)C(C#N)=C(N)O2 (stereo not given),31%,10,54*,2%,4,7
O=C(COc1ccccc1C(=O)NCC1CCCO1)Nc1ccc(Br)cc1 (stereo not given),-8%,0.7,-9,-14%,-1,-5
COc1cccc(CNC(=O)Cc2ccc(NC(=O)C3=C(C)OCCS3)cc2)c1,15%,-7.2,-3,0%,-6,-2
Cc1cc(/C=C2\SC(N)=NC2=O)c(C)n1-c1ccc(F)cc1,-11%[15.4 µM],1.9,-5,-6%,-13,.
CCC(=O)N1CCC(C)(C(=O)Nc2nccc3ccccc23)C1 (stereo not given),.,-4.2,-4,.,3,3
CCCN1C=CC(=CC=C(C#N)C#N)C=C1,0%[15.4 µM],-2.9,-2,?,-3,0
Cc1cc(C)cc(N(C(=O)c2ccc(Br)o2)C2C=CS(=O)(=O)C2)c1 (stereo not given),11%[15.4 µM],-1.0,-4,-19%,4,1
CSc1cccc(NC(=O)CN(c2cc(C)ccc2C)S(C)(=O)=O)c1,-8%,-4.3,-7,-17%,-11,-13
CCn1c(=O)cc(O)c2ccccc21,-3%,-1.8,10,4%,15,1
CN(Cc1nc2ccccc2c(=O)[nH]1)C(=O)c1cccc(S(=O)(=O)N2CCCC2)c1,?,-2.1,0,0%,-2,1
O=C(Nc1cccc(F)c1)C1CCCN1S(=O)(=O)c1cccc2cccnc12 (stereo not given),-3%,-4.5,-4,-17%,-6,3
O=C(CSc1nnc(-c2cccc(Cl)c2)o1)Nc1ccc2c(c1)OCCO2,0%,-1.9,1,-9%,-2,7
CCc1cccc2c(C(=O)C(NC(C)CC)c3ccccc3)c[nH]c12 (stereo not given),-6%[15.4 µM],-2.3,-8,-1%,3,-2
CC(=O)Nc1ccc(NC(=O)/C=C/c2ccc(Cl)cc2)cc1,20%[15.4 µM],-0.1,-8,2%,-13,-9
CC(=O)OC(C(=O)NC1CCCCC1)c1ccccc1F (stereo not given),-39%[inhibitor],-0.5,1,9%,-3,-2
O=C(CSc1nc(O)cc(=O)[nH]1)N1CCOCC1,21%,-1.5,-6,0%,2,-2
COc1ccc(NC(=O)Nc2ccc3c(c2)C(=O)N([C@H](C)CO)C[C@H](C)[C@@H](CN(C)S(=O)(=O)c2ccc(OC)cc2)O3)cc1,.,-5.7,-1,1%,-12,-5
COC(OC)c1ccnc(SCc2ccccc2Cl)n1,-11%[15.4 µM],-1.3,-7,-2%,6,3
O=C(Cc1ccc(S(=O)(=O)N2CCOCC2)s1)Nc1ccc2c(c1)CCC2,-41%[inhibitor],2.4,24,-9%,-3,-2
O=C(CN1CCN(c2ccccc2F)CC1)c1ccc2cc[nH]c2c1,-64%[inhibitor],-4.0,-14,5%,1,-5
O=C(Cc1cccc2ccccc12)NCC1CCCO1 (stereo not given),28%,0.8,-8,14%,5,7
COc1ccc(OC)c(C2C(C(=O)c3ccc(C)o3)=C(O)C(=O)N2c2cc(C)on2)c1 (stereo not given),?,4.7,-46,-34%,-8,-22
O=C(NNC(=O)c1csc(N2CCOCC2)n1)c1ccc(=O)[nH]c1,19%,-5.5,-4,9%,0,-11
COc1ccc(-c2cccc(-c3cc(=O)oc4cc5c(cc34)OCO5)c2)cc1,.,-0.1,-4,7%,3,7
COc1cc(C(O)c2nc3ccccc3n2C(C)C)cc(OC)c1OC (stereo not given),-3%,-2.7,-10,4%,6,-10
CC1c2cc3c(cc2CCN1C(=O)c1ccc(C(F)(F)F)cc1)OCCCO3 (stereo not given),-3%,4.6,-12,-5%,-1,0
COC(=O)[C@@]1(C)[C@H]2C(=O)N(Cc3ccccc3)C(=O)[C@H]2[C@H]2CN(C)C(=NC3CCCCC3)N21,.,-2.0,-3,2%,3,4
O=C(NC1CC1)C1=C[C@H](c2c[nH]c3ccccc23)C[C@H](OCCCCO)O1,1%,0.8,-2,-2%,-2,.
COc1ccc(CN(C)C(=O)CNC(=O)c2cccs2)c(OC)c1,17%,7.8,0,4%,7,8

# Screening results (PubChem)
